Compound activity (PubChem)
CtBP-E1A blk = inhibitors of CtBP/E1A interaction; activity change, % (no concentration beside the values); AlphaScreen GST-E1A/His-CtBP binding, 1536-well; active compounds read low; control for the full effect not named in the record; actives 0.49% (n = 340,000); in the data active means activity change below about -65%; inconclusive means about -30% to -65%; inactive means above about -30%; further: on the % scale 0 is the no-effect control and ±100 the full control effect
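Homogeneous bead-based format: GST-tagged E1A captured on glutathione donor beads, His-tagged CtBP on nickel acceptor beads; compounds precede bead addition by 2 h at 37 °C.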
Six1-Eya2 blk = inhibitors of human Six1/Eya2 interaction | Q15475+O00167 | AlphaScreen GST-Six1/His-Eya2 binding, biochemical; active compounds read low; control for the full effect not named in the record | activity change, % (test concentration not listed) | actives 0.56% (n = 360,000); in the data active = activity change below about -65%; inconclusive = about -30% to -65%; inactive = above about -30%; further: on the % scale 0 is the no-effect control and ±100 the full control effect
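GST-Six1 + His-Eya2 (5X stock: 250/500 nM); Tris pH 8.0, 300 mM NaCl, 0.05% BSA, 0.02% Tween 20; GSH donor/Ni acceptor beads; 1 h 37 °C dark; AlphaScreen readout.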
TRPML1 agonist = human mucolipin-1 channel agonism; Q9GZU1; TRPML1-expressing cells, Ca2+ dye fluorescence, FDSS; host cell line not named in the record; reference of the full effect not given here; activation, % (test concentration not listed); actives 0.12% (n = 410,000); AID 624414; in the data active = activation above about 50%; inconclusive = about 30% to 50%; inactive = below about 30%; further: 0% is about no effect; the text of the record puts the active cut at 80%
Target sequence (Q9GZU1 whole entry, looked up): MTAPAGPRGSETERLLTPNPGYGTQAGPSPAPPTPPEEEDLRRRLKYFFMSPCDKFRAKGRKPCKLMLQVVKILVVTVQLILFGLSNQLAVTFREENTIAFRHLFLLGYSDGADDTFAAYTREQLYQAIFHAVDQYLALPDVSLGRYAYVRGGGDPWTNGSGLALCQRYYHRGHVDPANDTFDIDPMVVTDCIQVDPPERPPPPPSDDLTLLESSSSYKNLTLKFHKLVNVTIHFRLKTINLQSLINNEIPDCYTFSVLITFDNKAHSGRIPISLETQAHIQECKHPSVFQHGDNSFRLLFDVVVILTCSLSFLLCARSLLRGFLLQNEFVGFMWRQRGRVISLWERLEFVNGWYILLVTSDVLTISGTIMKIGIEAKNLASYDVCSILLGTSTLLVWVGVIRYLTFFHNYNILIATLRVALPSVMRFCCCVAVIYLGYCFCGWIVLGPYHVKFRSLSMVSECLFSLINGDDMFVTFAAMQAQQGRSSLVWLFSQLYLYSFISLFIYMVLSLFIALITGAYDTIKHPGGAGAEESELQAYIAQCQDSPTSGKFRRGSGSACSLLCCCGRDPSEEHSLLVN
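Cells: TRPML1-DL, 1X Tet inducer, ~16 h at 37 degrees C/5% CO2. Dye: ABD Ca8 no-wash + quencher, 45-90 min RT. Read: 10 s baseline, compound add, 110 s agonist phase; 54-4 EC80 (4uM final), 110 s antagonist phase.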
D2 PAM = positive allosteric modulators of human D2 dopamine receptor; AID 624464; P14416; DiscoveRx D2 beta-arrestin cells, luminescence, 90 min; 100% = 57 uM dopamine signal; potentiation, % (test concentration not listed); actives 0.23% (n = 360,000); active = potentiation of 50% or more; inconclusive = 30% to 50%; inactive = 30% or less;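 further: compound concentration not given in the record; tested on top of an EC20 dose of dopamine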
Target sequence (P14416 whole entry, looked up): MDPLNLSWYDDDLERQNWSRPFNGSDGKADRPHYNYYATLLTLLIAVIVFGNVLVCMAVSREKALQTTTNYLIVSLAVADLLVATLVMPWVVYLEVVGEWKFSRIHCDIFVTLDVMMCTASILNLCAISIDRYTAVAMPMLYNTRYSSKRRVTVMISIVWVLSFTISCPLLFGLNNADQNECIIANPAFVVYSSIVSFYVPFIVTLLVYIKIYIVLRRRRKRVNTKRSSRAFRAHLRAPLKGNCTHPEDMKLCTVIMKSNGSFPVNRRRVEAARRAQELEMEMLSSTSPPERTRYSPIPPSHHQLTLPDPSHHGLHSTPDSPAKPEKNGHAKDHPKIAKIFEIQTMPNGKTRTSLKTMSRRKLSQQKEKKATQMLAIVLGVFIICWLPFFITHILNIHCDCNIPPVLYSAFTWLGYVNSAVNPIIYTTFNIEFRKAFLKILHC
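PathHunter beta-arrestin assay in DiscoveRx D2 cells. Compounds were added with an EC20 of dopamine (50 nM final) for 90 min at 37 deg C. Luminescence was read 1 h after detection reagent, with 57 uM dopamine as the EC100 control.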
PINK1 modulator = changes PINK1 expression. PINK1 immunofluorescence, high-content cytometry, 24 h. actives 0.2% (n = 410,000). Potency, µM (doses to about 76.6 µM), without a hit: at the highest dose activation (PINK1 increase), actives largely listed as activators; active = well fitted activation curve with a large enough effect; inconclusive = small, poorly fitted or top-dose-only effect; inactive = flat fitted curve, though single readings scatter; cell line not stated here;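 further: potency means the concentration at half of the fitted maximal effect; % of control where 0% means no effect; nearly all actives have a fitted effect of over 65% in size; a mitochondrial uncoupler was the plate control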
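PINK1 protein level read as immunofluorescence by microplate cytometer in a fixed, stained stable cell line after 24 h exposure to five compound concentrations, with CCCP as control.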
D2 ag = activates the human D2 dopamine receptor. P14416. DiscoveRx PathHunter D2 beta-arrestin, luminescence, 90 min; 100% = 57 uM dopamine signal. activation, % (test concentration not listed). actives 0.084% (n = 360,000). AID 624465; in the data active = activation above about 40%; inconclusive = about 15% to 40%; inactive = below about 15%; further: compound concentration not given in the record; the text of the record calls up to 30% inactive
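DiscoveRx PathHunter D2 beta-arrestin cells (2,100/well) attached overnight, then compound-stimulated 90 min at 37 C in HBSS/10 mM HEPES/0.1% Tween-20 buffer; beta-galactosidase complementation read by luminescence after 1 h at ambient temperature. Dopamine 57 uM final (EC100) as control.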
Numbers without * were called inactive; ? = inconclusive; . = not tested or not shown; [ ] = remark or other dose.

Start of the listing, in advance:
smiles | Six1-Eya2 blk | TRPML1 agonist | PINK1 modulator | D2 ag | CtBP-E1A blk | D2 PAM
COC(=O)c1ccc2nc(-c3ccccc3)c(Cc3cccc(F)c3)n2c1 | 1 | 0.1 | 1.5% | . | 4 | .
COc1ccc(OC)c(/C=N/NC(=O)c2ccc(Cn3cc([N+](=O)[O-])cn3)o2)c1 | ? | 2.0 | 12% | 4.5 | ? | -19
CSc1ccc(/C=N/N(C)S(=O)(=O)c2ccc(C)cc2)cc1 | -8 | 1.0 | 2.5% | 0.8 | 4 | -2
Cc1ccc(S(=O)(=O)NNC(=O)c2snnc2C)cc1 | 4 | 0.0 | 0.7% | -2.8 | 2 | 0

The listing, from the start:
smiles | Six1-Eya2 blk | TRPML1 agonist | PINK1 modulator | D2 ag | CtBP-E1A blk | D2 PAM
COC(=O)c1ccc2nc(-c3ccccc3)c(Cc3cccc(F)c3)n2c1 | 1 | 0.1 | 1.5% | . | 4 | .
COc1ccc(OC)c(/C=N/NC(=O)c2ccc(Cn3cc([N+](=O)[O-])cn3)o2)c1 | ? | 2.0 | 12% | 4.5 | ? | -19
CSc1ccc(/C=N/N(C)S(=O)(=O)c2ccc(C)cc2)cc1 | -8 | 1.0 | 2.5% | 0.8 | 4 | -2
Cc1ccc(S(=O)(=O)NNC(=O)c2snnc2C)cc1 | 4 | 0.0 | 0.7% | -2.8 | 2 | 0
COc1ccc(NC(=O)C2CC(=O)N(c3ccccc3C)C2)c(OC)c1 (stereo not given) | -3 | 0.8 | -0.8% | -3.0 | 1 | -7
Cc1cc(C)c2nc(N3CCC(C(=O)NCCN4CCOCC4)CC3)sc2c1 | 20 | -0.5 | 0.4% | -7.7 | 0 | -1
O=C(COc1ccc(-c2ccccc2)cc1)NNC(=O)Nc1ccc(F)cc1F | -1 | -0.2 | -1.1% | -3.6 | 8 | 2
O=C(CSc1n[nH]c(=O)[nH]c1=O)N/N=C/c1ccccc1O | -80* | 0.0 | 1.2% | -4.7 | -77* | 4
O=C(N/N=C/c1ccccc1Br)C1CC1 | 1 | 0.1 | 0.4% | -5.2 | 4 | -12
CC1(c2ccccc2)NC(=O)N(NC(=O)COC(=O)c2cc(Br)ccc2O)C1=O (stereo not given) | -9 | -0.3 | 0.6% | -2.7 | 0 | -7
O=C(NCCCn1ccnc1)Nc1ccc(Cl)cc1 | -3 | 0.7 | 4.7%[38.3 µM] | -4.1 | -4 | -12
CC(C)(C)N1C(=O)c2ccc(C(=O)O)cc2C1=O | 5 | -0.1 | -0.4% | -0.7 | 7 | 2
Cc1ccc(OCCOC(=O)Nc2ccccc2)cc1 | -1 | 3.5 | 5.2% | 0.2 | -4 | -9
N#Cc1c(C(F)(F)F)cc(=O)[nH]c1SCC(=O)O | 7 | -0.1 | 3.0% | -1.7 | . | -11
OCCC1CN(Cc2cccc(-c3ccco3)c2)CCN1Cc1ccsc1 (stereo not given) | 1 | -0.2 | 4.3% | 0.0 | . | -23
Cc1ccc(C)c(N2CCN(S(=O)(=O)c3c(C)noc3C)CC2)c1 | 0 | -0.3 | 4.7% | -1.4 | 5 | -4
Cc1ccccc1C(=O)NCC(=O)OCCCOC(=O)CNC(=O)c1ccccc1C | -3 | -0.4 | 0.1% | -6.3 | -1 | -1
Cc1cc(NS(C)(=O)=O)c(=O)n(Cc2cccc(F)c2)c1 | -1 | -0.1 | -0.4% | -4.1 | 7 | -2
CCc1ccc(OCC(=O)NCc2ccco2)c(Br)c1 | -16 | -0.2 | . | -2.2 | -13 | 0
CN(C)C(=O)CSc1nnc(-c2ccc(F)cc2)c2ccccc12 | -4 | 0.9 | 8.7% | -3.7 | . | -14
Cc1cc(C(=O)CSc2nc(N)cc(=O)[nH]2)c(C)n1CCc1ccc(Cl)cc1 | -8 | 0.3 | 0.6% | 0.5 | -7 | -11
CCOC(=O)NC(N(O)c1cccc(Cl)c1)C(Cl)(Cl)Cl (stereo not given) | 2 | 0.5 | 3.4% | ? | -2 | 5
CCOC(=O)C1=C(Cc2ccc(F)cc2)C(=O)c2ccccc2C1=O | -12 | 9.1 | 9.7%[38.3 µM] | 2.1 | -11 | 14
CCOC(=O)C1CCN(CC(=O)N2C(C)CCCC2C)CC1 (stereo not given) | 4 | -0.8 | -4.2%[38.3 µM] | -1.4 | 4 | 16
CCN(CC)C(=O)c1ccc(C(=O)Nc2ccc(F)cc2)cc1 | 7 | -0.3 | 0.6% | -1.8 | . | -8
Cc1ccc2nc(SCC(=O)c3ccc(Cl)cc3)nc(=O)n2c1 | -5 | 0.8 | 0.1% | -4.7 | 3 | -1
CCOC(=O)c1c(C)[nH]c(C)c1C(=O)COC(=O)/C=C/c1ccc(OC)cc1 | -12 | -0.1 | ? | -2.4 | 0 | -6
O=C(COC(=O)c1ccco1)Nc1ccc2[nH]c(=O)[nH]c2c1 | 0 | 0.0 | -0.1% | -8.2 | -5 | -4
CCc1ccc(NC(=O)c2sc3nc4n(c(=O)c3c2C)CCC4)cc1 | 7 | 0.5 | 3.6% | -0.5 | . | -12
CCN(c1ccc(OC)cc1)S(=O)(=O)N1CCCC(C(=O)NCc2ccccc2Br)C1 (stereo not given) | 0 | 0.8 | -0.3% | -2.3 | -1 | -6
CCN1CCN(C(=O)c2cc3c(=O)n(C)c4ccccc4c3n2C)CC1 | -2 | 0.1 | -0.5% | -3.2 | 0 | -4
CC(C)COC(=O)Nc1nnc(SCc2ccccc2F)s1 | -2 | 1.9 | 0.8% | -0.2 | -13 | -5
CC(C)N(C)NC(=S)Nc1ccccc1 | 1 | 0.9 | 1.6% | -0.7 | 11 | 20
CN(CC(=O)Nc1ccccc1Cl)C(=O)CCSc1ccc(F)cc1 | -8 | -0.1 | -2.0% | -0.2 | 1 | -1
COC(=O)c1ccccc1NC(=O)Cn1c(=O)oc2ccc(Cl)cc21 | -13 | 2.0 | 0.2% | -3.3 | -13 | -21
COc1cc(/C=N/NC(=O)c2c(C)nc3ccc(Cl)cn23)cc(OC)c1OC | 731 | 0.1 | 5.4% | -0.1 | 97 | -2
CC(OC(=O)c1ccccn1)C(=O)Nc1ccc2c(c1)OCCO2 (stereo not given) | -3 | 0.0 | -0.7% | -0.4 | 0 | 0
COc1c(C)cc(Br)cc1C(=O)Nc1ccccc1N1CCN(C(=O)c2ccccc2)CC1 | 2 | 0.3 | 0.5% | -4.4 | 11 | -2
COc1ccccc1Cc1c(-c2ccc(OC)c(OC)c2)nc2c(Cl)cc(C(F)(F)F)cn12 | 25 | -0.3 | 1.7% | . | 5 | .
O=C(NCCCO)C(=O)Nc1ccc2c(c1)N(S(=O)(=O)c1cccs1)CCC2 | 0 | -0.5 | 14% | -1.2 | -1 | 0
CC(C)NC(=O)C1=NN(c2ccccc2)C(=O)CC1 | 2 | -0.7 | 2.1% | 4.7 | 6 | 3
CCOC(=O)[C@]12CCCC=C1N(Cc1ccco1)C(=O)[C@H](CC(=O)NCc1ccccc1)C2 | -3 | -0.6 | -0.9% | . | 0 | .
CC(Oc1ccc(-c2ccccc2)cc1)C(=O)N/N=C/c1cccnc1 (stereo not given) | -6 | -0.5 | 5.1% | -1.9 | -15 | -8
Cn1c(=O)c2c(nc(CN3CCOCC3)n2CCc2ccccc2)n(C)c1=O | -1 | -0.9 | -0.9% | 0.7 | 1 | 4
COC(=O)c1ccccc1NC(=O)C(=O)NCc1ccncc1 | 10 | 1.9 | -0.1% | -4.8 | -10 | -9
O=c1[nH]ncc2c3ccccc3n(Cc3ccc(F)cc3)c12 | 7 | 1.0 | 11% | -2.4 | 1 | 3
CC(=O)C1=C(O)C(=O)N(Cc2ccco2)C1c1ccc2c(c1)OCO2 (stereo not given) | 1 | -0.4 | 9.3%[38.3 µM] | 2.7 | 5 | 3
CCNc1c(NC(=O)c2cccs2)c(=O)oc2ccccc12 | -4 | 0.4 | 4.8% | -3.3 | 4 | 1
Cc1c(CCC(=O)N2CCC[C@H]2C(=O)O)c(=O)oc2c(C)c3oc4c(c3cc12)CCCC4 | -14 | 0.3 | -0.4% | -5.5 | 11 | -5
Cc1cccn2cc(-c3c[nH]c4ccccc34)nc12 | -16 | 4.1 | 3.7% | -19 | -2 | -1

(listing goes on)
smiles | Six1-Eya2 blk | TRPML1 agonist | PINK1 modulator | D2 ag | CtBP-E1A blk | D2 PAM
O=C(COC(=O)/C=C/c1ccc(F)cc1)NCc1ccco1 | 1 | -0.9 | -0.1% | 0.2 | -6 | -1
Cc1c(NC(=O)COC(=O)Cc2ccc(Br)cc2)c(=O)n(-c2ccccc2)n1C | 9 | 0.3 | -0.9% | -0.9 | -25 | -14
CCn1nc(C)c(NC(=O)/C=C/c2cnn(C)c2)c1C | 2 | 1.3 | 3.1%[38.3 µM] | 0.9 | 5 | -3
O=C(NCCN1CCCCC1)c1cc(COc2c(F)cccc2F)on1 | -3 | 1.3 | -1.2% | -5.2 | -10 | -32
Cn1c(=O)c2[nH]c(CCCCCCCCc3nc4ccccc4[nH]3)nc2n(C)c1=O | -17 | 0.9 | 1.4% | 4.5 | -22 | -13
O=C(NCCCNC(=O)c1ccccc1Br)c1ccccc1Br | 3 | -1.5 | 0.5% | 6.4 | . | 0
COC(=O)Cn1cnc2ccccc2c1=O | 4 | -0.3 | 5.2% | -3.2 | 5 | -8
O=C(CN1C(=O)C2CC=CCC2C1=O)Nc1nc2ccc(F)cc2s1 (stereo not given) | -8 | 0.0 | -2.2% | 3.0 | 1 | -4
O=C(N/N=C/c1ccccn1)c1cc(-c2ccccc2)nc2ccccc12 | ? | -0.8 | 15% | -3.4 | . | -33
COc1c2ccccc2c(OC)c2ccccc12 | 8 | -0.5 | 1.8% | 3.9 | 23 | 2
Cc1cccn2c(=O)nc(SCC(=O)N3CCCCCC3)nc12 | -18 | -0.6 | 14% | 0.6 | -27 | -19
COc1ccc(/C=N/NC(=O)CNC(=O)COc2ccccc2)cc1 | 3 | -0.5 | -1.2% | -1.7 | 2 | -5
COc1cc(C2SCC(=O)N2CCN2CCCCC2)ccc1O (stereo not given) | 7 | -0.6 | 0.0% | 3.4 | 3 | -17
O=C(CSc1nc2ccccc2o1)N/N=C/c1ccc(C(=O)O)cc1 | -8 | 0.1 | -2.0% | -3.9 | -3 | -4
O=C(c1ccoc1)N1CCC2(CC1)Oc1ccc(Cl)cc1C(=O)C21CC(c2ccccc2)=NO1 (stereo not given) | -5 | -0.6 | -0.4% | 2.1 | -9 | -3
Cn1c(=O)n(C)c2cc(NS(C)(=O)=O)ccc21 | 2 | -0.5 | -1.0% | -0.7 | 0 | -3
COc1ccc(-c2cc(N)n(S(=O)(=O)c3ccc(F)cc3)n2)cc1OC | -19 | -0.9 | 6.7% | 5.0 | 0 | -4
CC(C(=O)N1CCCC1)N1CCN(S(=O)(=O)c2ccccc2)CC1 (stereo not given) | -2 | -1.0 | 1.3% | -3.8 | . | 5
